Bioassay records: PubChem BioAssay, National Center for Advancing Translational Sciences (NCATS)
TSHR ag: agonists of human thyroid stimulating hormone receptor. P16473. HEK293-CNG-TSHR cells (CNG channel as cAMP sensor), membrane potential dye, cAMP. Potency, µM (top dose mostly 57.1 µM), without a hit: at the top dose activation, hits mostly activators. 0.48% of 73,000 active; active = well fitted activation curve of enough size with the parental cells flat; inconclusive = any curve in the parental cells; inactive = parental cells flat and receptor cells flat or falling; note: potency is the fitted concentration of half-maximal effect; % of control where 0% means no effect; weak receptor curves with flat parental cells got no call and are not listed
Target sequence (P16473 whole entry, looked up): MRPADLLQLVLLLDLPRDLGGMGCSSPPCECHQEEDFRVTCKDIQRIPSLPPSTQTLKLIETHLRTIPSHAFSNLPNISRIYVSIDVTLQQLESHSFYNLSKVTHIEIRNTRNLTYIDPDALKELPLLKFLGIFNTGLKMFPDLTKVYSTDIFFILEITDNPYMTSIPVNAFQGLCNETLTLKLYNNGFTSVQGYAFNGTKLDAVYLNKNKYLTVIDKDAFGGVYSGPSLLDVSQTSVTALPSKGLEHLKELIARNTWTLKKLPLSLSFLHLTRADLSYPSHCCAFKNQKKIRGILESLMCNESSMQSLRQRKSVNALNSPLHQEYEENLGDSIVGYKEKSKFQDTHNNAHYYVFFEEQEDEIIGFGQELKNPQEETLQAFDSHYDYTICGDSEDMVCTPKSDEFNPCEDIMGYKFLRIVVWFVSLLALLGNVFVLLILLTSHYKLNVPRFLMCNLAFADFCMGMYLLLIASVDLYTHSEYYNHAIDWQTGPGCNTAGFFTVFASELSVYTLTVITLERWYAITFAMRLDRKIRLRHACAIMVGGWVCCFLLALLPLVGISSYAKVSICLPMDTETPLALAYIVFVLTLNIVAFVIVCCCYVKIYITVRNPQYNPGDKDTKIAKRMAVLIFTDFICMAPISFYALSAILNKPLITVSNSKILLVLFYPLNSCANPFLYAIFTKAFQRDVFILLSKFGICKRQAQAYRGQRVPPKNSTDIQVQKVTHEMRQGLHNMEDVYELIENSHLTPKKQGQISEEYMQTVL
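HEK 293 cells stably expressing TSHR and a modified CNG channel, with CNG-only parental cells as counterscreen, were preloaded 60 min at room temperature with membrane potential dye containing 100 uM RO 20-1724. Compound exposure was 30 min, and depolarization was read as fluorescence at 590 nm.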
Resorufin fluor: resorufin region autofluorescence; Compound fluorescence, resorufin region 547/598 nm, buffer; active compounds read high; max dye-equivalent concentration, M; 0.04% of 59,000 active; AID 588; active = above 10 nM dye equivalent; inconclusive = 1 to 10 nM; inactive = 1 nM or less; a few of its hits are not listed in these tables; note: highest value over a series up to 38 µM
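Compounds in 100 mM Tris, pH 8.0, incubated 15 min at room temperature, then fluorescence read at 547 nm excitation/598 nm emission. Signal converted to dye-equivalent concentration via an on-plate six-point resorufin standard curve, per compound concentration.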
A488 fluor: compound autofluorescence in A488 spectral region; compound autofluorescence, A488 spectral region, dye equivalency; active compounds read high; max dye equivalency, M; 0.1% of 59,000 active; AID 591; active = above 10 nM dye equivalent; inconclusive = 1 to 10 nM; inactive = 1 nM or less; about half of its hits are not listed in these tables;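 note: highest value over a series up to 38 µM; compound alone in buffer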
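Compound autofluorescence was read in 100 mM Tris pH 8.0 after 15 min at room temperature, ex 480 nm/em 540 nm. Intensities were converted to A488 dye-equivalent concentration using an on-plate six-point A488 standard curve.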
A647 fluor: compound fluoresces in the A647 spectral region. Compound fluorescence, A647 channel (570/671 nm), Tris buffer. 59,000 tested, under 10 active. max dye-equivalent concentration, M; active means above 1 µM dye equivalent; inconclusive means 0.1 to 1 µM; inactive means 0.1 µM or less;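 note: values scaled relative to a standard on each plate; highest value over a series up to 38 µM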
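Fluorescence read (570 nm ex, 671 nm em) after 15 min RT incubation of compounds in 100 mM Tris buffer, pH 8.0; values expressed as dye-equivalent concentration against a six-point A647 standard series on each plate.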
AID923: qHTS Assay for Allosteric/Competitive Inhibitors of Caspase-1: Spectroscopic Profiling in AFC Spectral Region; Potency, µM (top dose mostly 57.5 µM), without a hit: at the highest dose fluorescence increase, hits mostly activators; compound fluorescence, AFC spectral region (405/520 nm); almost no hit is shown here; 1.1% of 75,000 active; active = well fitted activation curve with a large enough effect; inconclusive = small, poorly fitted or top-dose-only effect;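 note: potency is the fitted concentration of half-maximal effect; 0% is about no effect; scaled to a free AFC standard on each plate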
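Compound autofluorescence profiled at 405 nm ex/520 nm em during kinetic caspase 1 run (50 nM enzyme, 5 uM Ac-WEHD-AFC, HEPES pH 7.5, 10 mM DTT). Titration up to 57 uM; baseline from regression intercept, normalized to AFC standard curve.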
* = called active by the depositor; i = inactive; u = inconclusive; x = no result given; & = joins results of further samples; [ ] = another dose, or the depositor's remark. Some of the compounds tested; rates above refer to the full screens.

SMILES	A647 fluor	AID923	A488 fluor	Resorufin fluor	TSHR ag
Cc1ccc2[nH]c(=O)c(CN(CCc3ccccc3)C(=O)N3CCOCC3)cc2c1	4.38e-08	-3.4%	i	i	6.6%
Cc1ccccc1Cc1c(C)nc2c(C(=O)NCc3ccco3)cnn2c1C	7e-09	-1.1%	i	i	x
Clc1ccc(Cl)c(-c2nn3c(COc4ccccc4)nnc3s2)c1	2.12e-08	-1.3%	i	i	u
COc1ccc(OC)c(-n2cnc3cc(C(=O)O)ccc32)c1	3.16e-08	-0.9%	i	i	u
CC(=O)Nc1ccc(NS(=O)(=O)c2ccc(Cl)c(C(=O)O)c2)cc1	1e-09	3.3%	i	i	-0.7%
O=C(NC1CCCCCC1)C1CCN(S(=O)(=O)c2ccccc2)CC1	1e-09	-0.9%	i	i	1.7%
O=C(O)c1cccc(-n2nnnc2SCc2ccccn2)c1	1e-09	3.3%	i	i	4.8%
Cc1cccc(CNc2cc(-c3cccc(C#N)c3)ncn2)c1	1.77e-08	-0.2%	i	i	u
CCOc1ccc(NCc2nnc(SCC(=O)Nc3cc(C)on3)n2-c2ccc(OC)cc2)cc1	1.74e-08	1.4%	i	i	-1.8%[11.4 µM]
O=C(Nc1cccnc1)Nc1ccccc1Cl	1e-09	-1.0%	i	i	0.4%
CCCNC(=O)CS(=O)(=O)Cc1nc(-c2cccc(OC)c2)oc1C	x	-0.3%	x	x	13.1%
COc1cc(C2CC(=O)c3c([nH]c(C(=O)OCCOC(C)C)c3C)C2)cc(OC)c1OC (stereo not drawn)	x	-3.3%	x	x	u
O=C1Nc2ccccc2C1(O)Cc1ccncc1 (stereo not drawn)	1e-09	0.6%	i	i	-2.0%
O=C1C2CCCN2C(c2ccc(F)cc2)N1c1nccs1 (stereo not drawn)	2.6e-09	2.0%	i	i	3.1%
O=C(Nc1nc(-c2ccccn2)cs1)c1ccc(Cl)s1	x	0.9%	x	x	17.0%
COCCn1c(SCc2csc(-c3ccccc3)n2)nc2ccccc21	1e-09	0.5%	i	i	u
CN1CCN(C(=O)Nc2cccc3ccccc23)CC1	1e-09	-0.5%	i	i	4.3%
Cn1c(=O)c2c(nc(NCCCN3CCOCC3)n2Cc2ccc(Cl)cc2)n(C)c1=O	3.5e-08	3.3%	i	i	6.3%
COc1ccc(C(=O)N2CCC[C@@]3(CCN(Cc4ccc(C#N)cc4)C3)C2)cc1	1.31e-08	3.6%	i	i	u
Cc1c(C#N)c(N=CN(C)C)c(C(=O)c2ccccc2)n1-c1ccccc1	x	2.3%	x	x	u
CCOC(=O)N1CCC(Nc2c(NCCCOC)c(=O)c2=O)CC1	3.2e-09	-0.1%	i	i	u
O=C(NCc1ccc(N2CCCC2=O)cc1)NC1CCCCC1	5.6e-09	-1.0%	i	i	-20.2%
COc1ccc(/C=C/NC(=O)Cc2ccc(OC)c(OC)c2)cc1	x	2.4%&0.3%[11.5 µM]	x	x	-1.7%&10.9%[11.4 µM]
CCCN(CCC)CCCNS(=O)(=O)c1ccc2c(c1)oc(=O)n2C	3.51e-08	0.2%	i	i	u
CN[C@]1(C)[C@@H]2CC[C@@H](C2)C1(C)C	2.5e-09	-3.4%	i	i	4.3%
O=S(=O)(NCc1cccnc1)c1cccs1	1.13e-08	-0.1%	i	i	-4.6%
CCOC(=O)c1cc2c(ccn2C)n1CC(=O)N1CCC(Cc2ccccc2)CC1	1.93e-08	4.2%	i	i	-19.1%
Cc1cc(C)n(-c2ccc(C(=O)Nc3nnc(C4CC4)s3)cc2)n1	1e-09	-0.9%	i	i	-4.9%
Cc1nc2cnc(N3CCN(C)CC3)nc2n(CCc2ccccc2)c1=O	1e-09	8.3%	i	i	u
C=CCn1c(=N)n(CC(O)COc2ccc(OC)cc2)c2ccccc21 (stereo not drawn)	x	0.4%	x	x	18.3%
Cc1noc(C)c1-c1nccc(N(C)C)n1	1e-09	2.5%	i	i	5.0%
Cc1ccc2cc(CN(CC3CCCO3)S(=O)(=O)c3ccc4c(c3)OCCO4)c(=O)[nH]c2c1C (stereo not drawn)	2.4e-09	-0.3%	i	i	18.6%
CC(=O)N1CCC2(CC1)CCN(c1ccc(-c3ccccc3)cc1)CC2	6.4e-09	12.3%	i	i	-17.4%
CCC(C)Sc1nnc(Cc2cc(=O)[nH]c(=O)[nH]2)n1-c1ccc(F)cc1 (stereo not drawn)	x	-2.0%	x	x	1.1%
CC(C)Cn1c(N)c(C(=O)COC(=O)c2cc(-c3ccco3)nc3ccccc23)c(=O)n(C)c1=O	4.9e-09	8.4%	i	i	1.3%
CCC(C)(C)C(=O)O[C@@H]1C[C@H](C)C=C2C=C[C@H](C)[C@@H](CC[C@H]3C[C@@H](O)CC(=O)O3)[C@H]21	9.4e-09	-1.4%[25.7 µM]	i	i	x
CCC(=C(CC)c1ccc(O)cc1)c1ccc(O)cc1	1.8e-09	0.6%[25.7 µM]	i	i	0.8%[25.6 µM]
CCOCCCn1c(SCC(=O)NC(C)(C)C)nc2ccccc2c1=O	1.1e-09	-2.4%	i	i	8.2%
CCOC(=O)CSc1nc2c(sc(=S)n2Cc2ccco2)c(=O)n1-c1ccc(F)cc1	1e-09	-1.4%	i	i	u
CCC(Sc1nc2n[nH]c(C)c2c(=N)n1-c1ccc(C)c(Cl)c1)C(=O)N1CCOCC1 (stereo not drawn)	1.05e-08	-2.0%	i	i	10.9%
OCC12COC(c3ccccc3)N1C(c1ccccc1)OC2 (stereo not drawn)	9.6e-09	-0.8%	i	i	0.7%
CCOC(=O)c1ccc(NC2OC(=O)c3ccccc32)cc1 (stereo not drawn)	1e-09	-0.2%	i	i	-4.0%
O=C(C1CCCO1)N1CCN(Cc2nc3ccccc3c(=O)[nH]2)CC1 (stereo not drawn)	2.55e-08	-0.7%	i	i	2.7%
N#Cc1c(NC(=O)CN2CCN(C(=O)c3ccco3)CC2)sc2c1CCCCC2	1e-09	0.0%	i	i	4.6%
COc1ccc(Cn2nnnc2CN(Cc2cc3cc(C)ccc3[nH]c2=O)C2CCCC2)cc1	1e-09	2.5%	i	i	u
CC/C(=C\C(=O)c1cccnc1)Nc1ccc(C)c(C)c1	1.2e-09	1.3%	i	i	-3.1%
CC(C)(C)C1=Nn2c(nnc2-c2ccco2)SC1	2.91e-08	x	i	i	x
COc1ccccc1NC1=NC2(CCCC2)N=C(N)N1	x	3.6%	x	x	2.0%
Clc1ccc(N2CCN(c3ncnc4c3oc3ccccc34)CC2)cc1	2.06e-08	0.0%	i	i	u
N#Cc1nc(-c2ccco2)oc1N1CCN(c2cccc(Cl)c2)CC1	4.2e-09	1.6%	i	i	u

The list continues:
SMILES	A647 fluor	AID923	A488 fluor	Resorufin fluor	TSHR ag
CCCc1cc(C(=O)NCc2cccs2)no1	x	-3.7%	x	x	1.0%
Cn1c(SCC(=O)N2CCOCC2)nnc1-c1cccc(NC(=O)c2ccccc2F)c1	1.95e-08	x	i	i	x
Cc1cnc(C(=O)Nc2ccccc2-c2ccc(C)o2)cn1	1.43e-08	4.6%	i	i	18.8%
O=C(CSc1nnc(-c2ccco2)o1)NC1CC2CCC1C2 (stereo not drawn)	5.6e-09	0.0%	i	i	-2.4%
O=C(Nc1ccc2c(c1)OCCO2)C1CCC1	5.7e-09	-2.1%	i	i	0.8%
CC(C)COC(=O)OCN1C(=O)CN(CCN2CC(=O)N(COC(=O)OCC(C)C)C(=O)C2)CC1=O	8.5e-09	0.4%	i	i	3.3%
CCc1cccc2c(C#N)cn(CCOc3ccccc3OC)c12	3.7e-09	1.3%	i	i	u
COC(=O)c1ccc(C(=O)OC)c(NC(=O)c2ocnc2C)c1	9e-09	0.0%	i	i	2.2%
CCCOc1ccc2ccccc2c1/C=N/n1c(C)nnc1-n1nc(C)cc1C	x	-1.1%	x	x	u
COCc1[nH]nc2c1C(c1ccc(OC)cc1)C(C#N)=C(N)O2 (stereo not drawn)	1e-09	x	i	i	x
C=CCn1c(SCc2nc(N)nc(N(C)C)n2)nnc1-c1cccnc1	1e-09	0.1%	i	i	-1.1%[11.4 µM]
Nc1nc(N2CCCCC2)nc(N(c2ccccc2)c2ccccc2)n1	x	2.7%	x	x	3.2%
Cc1cc(=O)[nH]c(N2CCN(C(c3ccccc3)c3ccccc3)CC2)n1	1e-09	0.0%	i	i	-3.6%
COc1cccc(N(C(=O)c2cccs2)c2nc3ccccc3s2)c1	3.8e-09	-0.6%	i	i	u
COc1ccccc1-c1cc(C(=O)NCCCn2ccnc2)no1	6.3e-09	-2.0%	i	i	-0.6%[11.4 µM]
C=CCOc1nc2c(c(=O)n(C)c(=O)n2C)n1Cc1c(Cl)cccc1Cl	7.32e-08	x	i	i	x
C=C(C)Cn1c(C2CC(=O)N(Cc3ccccc3)C2)nc2ccccc21 (stereo not drawn)	x	-0.2%	x	x	21.1%
Nc1nc(Nc2ccccc2)nc2c1ncn2[C@@H]1O[C@@H](CO)[C@H](O)[C@@H]1O	3.1e-09	-1.5%	i	i	3.8%
CCc1c(C)sc(NC(=O)c2ccco2)c1C(=O)N1CCCCC1	2.28e-08	1.2%	i	i	9.6%
CN(C)S(=O)(=O)c1ccc(C(=O)Oc2ccccc2)cc1	6.3e-09	-1.2%	i	i	-11.6%
Cc1cc(C)c2ccc(C)[n+]([O-])c2c1O	4.1e-09	0.2%	i	i	-9.8%
CCCCCCN1C(=O)C(O)=C(C(C)=O)C1c1ccc(Cl)cc1 (stereo not drawn)	x	2.7%	x	x	-4.8%[11.4 µM]
O=C(c1ccccc1)c1ccc(CN2C(=O)c3ccccc3C2=O)o1	1.41e-08	2.4%	i	i	26.4%
CCCn1c(NCc2ccc(C)o2)nc2ccccc21	3.6e-09	-0.3%	i	i	u
CCCn1cc(S(=O)(=O)CC(=O)N2CCc3ccccc32)c2ccccc21	1.36e-08	1.8%	i	i	u
CCc1nnc(NC(=O)CSc2nnc(CSc3nc(C)cc(C)n3)n2CC)s1	1e-09	0.5%	i	i	2.4%
Cc1ccc(-c2nnn(CC(=O)NCC3COCCO3)n2)o1 (stereo not drawn)	5.71e-08	0.6%	i	i	-6.0%
COC(=O)CCCC[C@H]1SC[C@H]2NC(=O)N[C@]21O	1e-09	-1.4%	i	i	-0.3%[11.4 µM]
CCSc1nnc(NC(=O)NCC(F)(F)F)s1	7.34e-08	x	i	i	x
Cc1sc2nc(SCC(=O)NCCOCCO)n(C)c(=O)c2c1C	x	1.4%	x	x	-1.0%[11.4 µM]

In the list so far, these contain a tert-butyl group:
SMILES	A647 fluor	AID923	A488 fluor	Resorufin fluor	TSHR ag
CCOCCCn1c(SCC(=O)NC(C)(C)C)nc2ccccc2c1=O	1.1e-09	-2.4%	i	i	8.2%
CC(C)(C)C1=Nn2c(nnc2-c2ccco2)SC1	2.91e-08	x	i	i	x

Further records
SMILES	A647 fluor	AID923	A488 fluor	Resorufin fluor	TSHR ag
CC1=C(C(=O)OC2CCCCC2)C(c2cccnc2)n2ncnc2N1 (stereo not drawn)	2.89e-08	1.2%	i	i	-8.2%
CC12COC3(C(=O)N4CCN(c5ccccn5)CC4)CC1CCC32C (stereo not drawn)	3.07e-08	-0.7%	i	i	1.6%[11.4 µM]
O=C(CP(=O)(CO)CO)c1ccc(Cl)cc1	1e-09	-2.1%	i	i	2.5%
COC(=O)[C@H]1C[C@@H]1[C@H](NS(=O)(=O)c1ccccc1)c1ccccc1	x	-0.4%	x	x	u
